Source: PubChem
Vaccinia mCherry: vaccinia inhibition (mCherry reporter) | Vaccinia virus mCherry reporter infection, fluorescence; about a quarter of the inactives have no number | Potency, µM (top dose mostly 36.5 µM), without a hit: at the top dose activity change, negative = inhibition, hits mostly inhibitors | 0.63% of 310,000 active; active = well fitted inhibition curve with a large enough effect; inconclusive = small, poorly fitted or top-dose-only effect; inactive = no such curve, though single readings can be large or run the other way; tested in A549 cells; also: nearly all actives have a fitted effect of over 35% in size; inactives centre near -10
VACV Venus inh: vaccinia inhibition (Venus reporter); Potency, µM (highest dose often 36.5 µM), inactives show at the top dose activity change, negative = inhibition, most hits filed as inhibitors; Vaccinia virus Venus reporter expression, fluorescence; 0.46% of 330,000 active; active means well fitted inhibition curve with a large enough effect; inconclusive means small, poorly fitted or top-dose-only effect; inactive means no such curve, though single readings can be large or run the other way; tested in A549 cells; also: nearly all actives have a fitted effect of over 30% in size; inactives centre near -10
An asterisk follows results filed as active; i = inactive; ? = inconclusive; nt = not tested or not shown; [ ] = another dose, or the depositor's remark. % is scaled to controls: 0 for no effect and ±100 for the full control effect; potency is read from the fitted curve at half-maximal effect.

mol	Vaccinia mCherry	VACV Venus inh
NC(=S)NN=C(c1ccc(F)cc1)C1CC1	?	?
CC(C)(C)S(=O)(=O)N1Cc2cc(=O)n(Cc3ccccc3)c(CCO)c2[C@@H]1CCO	?	-15%
COc1cccc(CNc2ncc(-c3ccccc3)n2C)c1	?	-23%
Cc1cc(OCC(=O)O)c2c3c(c(=O)oc2c1)CCCC3	-12%	-10%
O=C(NN1CCCCC1)c1cccc(COc2ccc(Cl)cc2)c1	-3%	-22%
Cc1cccc2sc(=S)[nH]c12	24%	5%
O=C(C[n+]1cnn(CC(=O)c2ccc(Cl)cc2Cl)c1)c1ccc([N+](=O)[O-])cc1	-29%	-16%
Cc1ccc(C(=O)N/C(=C\c2ccco2)C(=O)NCCN2CCOCC2)cc1	-2%	-5%
O=C(Nc1cccc(S(=O)(=O)N2CCOCC2)c1)C(c1ccccc1)N1CCCCC1 (configuration not stated)	-2%	-4%
Cc1cc(C(=O)Nc2nc(-c3ccccn3)cs2)ccc1[N+](=O)[O-]	?	-28%
O=C1CN2C(=N1)N(Cc1ccccc1)c1ccccc12	-14%	-12%
CC(=O)OCC(=O)C1(O)CCC2C3CCC4=CC(=O)C=CC4(C)C3C(=O)CC21C (configuration not stated)	i	-6%
O=C(CCn1c(=S)[nH]c2ccccc2c1=O)N1CCOCC1	i	-2%
Cc1ccc2[nH]c3c(NCCCN4CCCC4=O)ncnc3c2c1	-16%	-14%
O=C1N(c2ccccc2C(F)(F)F)O[C@@]1(c1ccccc1)C1CCCCC1	?	?
COC(=O)C1=C(c2ccc3ccccc3c2)C[C@@H]2CC[C@H]1N2C(=O)N1CCOCC1	-10%	?
O=C(N/N=C/C1CC=CCC1)c1ccc(O)cc1O (configuration not stated)	-8%	5%
C=CCN1CCN(C(c2cc(OC)ccc2OC)c2nnnn2CC2CCCO2)CC1 (configuration not stated)	-10%	-1%
CCOC(=O)c1sc(NC(=S)NC(=O)c2cccc(Cl)c2)c(C(=O)OCC)c1C	i	-3%
Cc1c(C2Nc3ccccc3NC3=C2C(=O)CC(C)(C)C3)cnn1C (configuration not stated)	-21%	-13%
S=C(NCc1ccc(Cl)cc1)NN1CCOCC1	-19%	-6%
COc1ccc(CC(=O)NNC(=O)COc2ccc(Cl)cc2C)cc1S(=O)(=O)N1CCOCC1	0%	-16%
COCCN=C1NN=C(c2cc(C)n(CC3CCCO3)c2C)CS1 (configuration not stated)	-9%	-2%
COc1cc(CCCN[C@H](CN)Cc2ccccc2)cc(OC)c1OC	-3%	-2%
CCOC(=O)/C=C1\Nc2ccccc2SC1=O	-16%	-16%
O=C(c1ccco1)N1CCN(c2c([N+](=O)[O-])nn(-c3ccc(Cl)cc3)[n+]2[O-])CC1	?	11%
COCOCCn1cc(CN2CCS(=O)(=O)N(Cc3ccc(-c4ccc(F)nc4)cc3)C(CC(C)C)C2=O)nn1 (configuration not stated)	-8%	-27%
Cc1cc(NC(=O)CSc2nc(-c3ccco3)cc(C(F)(F)F)n2)n(-c2ccccc2)n1	nt	?
CCN1C(=O)C(CC(=O)NCCc2ccccc2)N(NC(=O)c2ccc(Br)cc2)C1=S (configuration not stated)	i	-25%
COc1ccccc1NC(=O)CCCN1C(=O)C2CC=CCC2C1=O (configuration not stated)	-13%	-2%
COc1ccc(CCNC(=O)CNC(=O)c2ccco2)cc1	i	-2%
CCOc1cc(C2NC(=O)NC(C)=C2C(=O)OC(C)CC)cc(Br)c1O (configuration not stated)	-25%	-15%
Cc1ccc(NC(=O)C2CCN(S(=O)(=O)c3ccccc3)CC2)cc1	i	-12%
COc1ccc(Cl)cc1NC(=O)c1cn(C2CCCCC2)c(=O)c2c1c1ccccc1n2C	-9%	-9%
COc1cc(/C=N\NC(=O)c2ccc(C)nc2)ccc1OC(=O)c1ccco1	i	-8%
COc1cc(NC(=S)N2CCN(S(C)(=O)=O)CC2)cc(OC)c1	i	-11%
CC(=O)N1CCc2cc(C(=O)CN3CCN(c4ccccc4F)CC3)ccc21	-21%	-6%
Cc1cccn2c(=O)cc(COc3ccc(NC(=O)c4cccc(F)c4)cc3)nc12	-7%	-7%
Cc1ccc(NC(=O)Cn2c(=O)ccc3cc(S(=O)(=O)N4CCC(C)CC4)ccc32)c(C)c1	-10%	-11%
CC1(C)OC(=O)C(=CNc2ncccn2)C(=O)O1	-10%	3%
CC1CN(c2ccc([N+](=O)[O-])cc2F)CCN1C(=O)c1ccco1 (configuration not stated)	-13%	-25%
COCCNc1cc(NCCOC)c([N+](=O)[O-])cc1[N+](=O)[O-]	i	14%
Nc1ncnc2nc(-c3ccccc3)[nH]c12	i	-19%
CCOC(=O)c1c(C)[nH]c(C)c1S(=O)(=O)NCC(=O)N(C)c1ccc(C)c(C)c1	-16%	3%
CCN1CCN(CCCNC(=O)C2CCCN(c3nnc(-n4cccc4)s3)C2)CC1 (configuration not stated)	nt	-18%
CCc1ccc(NC(=O)c2ccc3c(c2)C(=O)N(CCOC)C3Nc2ccc(CC)cc2)cc1 (configuration not stated)	-13%	?
O=C(Nc1cccc(-c2nc3cccnc3s2)c1)c1cccnc1Cl	i[7.34 µM]	0%[7.34 µM]
Cc1ccc(CN(C(=O)COc2cccc([N+](=O)[O-])c2)c2ccccn2)cc1	-17%	-5%
CC(C)CN1C(=O)C(=O)N(CC(=O)c2ccc3c(c2)CCCC3)C1=O	-18%	-16%
O=C(c1ccc2c(c1)N(Cc1ccc(F)cc1)CCS2)N1CCN(c2ccccc2)CC1	-13%	-12%

Remaining list, next part:
mol	Vaccinia mCherry	VACV Venus inh
Cc1ccccc1NC(=O)CSc1cn[nH]n1	-20%	-6%
OC[C@@H]1[C@@H](c2ccc(F)cc2)C(c2cccc(Cl)c2)=NN1c1ccccc1	-22%	-24%
CN(CCNC(=O)Cn1c(=O)sc2ccccc21)Cc1ccccc1	-6%	-9%
CC(=O)Nc1ccccc1-c1nc2ccccc2n(CC(=O)c2ccc(C)c(C)c2)c1=O	-21%	-20%
CCOc1ccc(N(C)S(=O)(=O)c2ccc(C)c(C(=O)NCCc3ccc(OC)cc3)c2)cc1	-28%	-21%
CN(C)S(=O)(=O)c1ccc(NC(=S)NC(=O)c2cccs2)cc1	i	2%
Fc1ccc(-c2noc(C3CCN(Cc4cccnc4)CC3)n2)cc1	-15%	?
Cc1nc(N/N=C/c2ccc(Br)cc2)cc(N2CCOCC2)n1	-26%	?
CCCC(=O)Nc1ccc(C(=O)NCc2ccccn2)cc1	i	-4%
COc1cc(/C=N/N(C)C)ccc1OC(=O)c1cccs1	-9%	0%
CCOC(=O)C1=CN(CC)S(=O)(=O)NC1c1cccc(OC)c1 (configuration not stated)	-6%	-6%
O=C(N/N=C\c1cccc(Cl)c1)c1ccc(Cn2cccn2)o1	-17%	-11%
CC(Nn1cnnc1)c1cc(Cl)ccc1O (configuration not stated)	i	-16%
O=C(NCc1cccc(F)c1)C1CCC(=O)N(CCCN2CCOCC2)C1 (configuration not stated)	-18%	-22%
Cc1nc(SCCC(=O)O)c2cc(-c3ccccc3)sc2n1	i	-8%
COC(=O)c1ccc2c(c1C(=O)OC)CN(S(=O)(=O)C(C)(C)C)[C@@H]2CCO	15%	-11%
CC(=O)O/N=C/c1c(NCc2ccccc2)nc2c(C)cccn2c1=O	?	-11%
O=C1C[C@@H]2CCN3C(=O)CCC[C@@H]([C@H]23)[C@H]1Cc1ccccc1	i	-1%
O=C(Nc1ccc(Cl)cc1)c1ccc(-n2cncn2)c([N+](=O)[O-])c1	?	-20%
Cc1nc2ccccc2cc1C(=O)N/N=C/c1ccco1	i	3%
COc1ccc(CN(Cc2ccccc2)C(=O)COC(C)=O)cc1COc1ccc(NC(C)=O)cc1	i	-20%
Cc1ccc(-n2c(SCC(=O)Nc3ccc(Cl)cc3)nc(O)cc2=O)cc1	i	-6%
COc1ccc2[nH]c(C)c(CCNC(=S)Nc3ccc(F)cc3)c2c1	-11%	-9%
COc1ccc(S(=O)(=O)N2CCN(C)CC2)c2ccccc12	-12%	-6%
CC(=O)Nc1ccc(S(=O)(=O)N2CCN=C2SCc2cccnc2)cc1	-6%	-18%
Cc1ccccc1NC(=O)c1c(C)[nH]c(=S)c(C#N)c1-c1ccco1	-9%	-1%
O=C(CN1CCCCC1)NNC(=O)c1cccc(Br)c1	?	-2%
Cc1ccccc1C(=O)Nc1ccnn1C1CCN(Cc2ccccn2)CC1	-1%	-16%
CC(=O)c1cccc(NC(=O)CN(C)Cc2ccc(OC(F)F)cc2)c1	24%	-6%
Cc1ccc(C(=O)N/C(=C\c2sccc2C)C(=O)NCc2ccncc2)cc1	-25%	-9%

Single records (already shown). Values in the order: Vaccinia mCherry	VACV Venus inh
O=C(CN1CCCCC1)NNC(=O)c1cccc(Br)c1 in the list: ?	-2%
Cc1ccc(-n2c(SCC(=O)Nc3ccc(Cl)cc3)nc(O)cc2=O)cc1 in the list: i	-6%
Cc1ccccc1C(=O)Nc1ccnn1C1CCN(Cc2ccccn2)CC1 in the list: -1%	-16%
CC(=O)Nc1ccc(S(=O)(=O)N2CCN=C2SCc2cccnc2)cc1 in the list: -6%	-18%
COc1ccc(S(=O)(=O)N2CCN(C)CC2)c2ccccc12 in the list: -12%	-6%

Later entries.
mol	Vaccinia mCherry	VACV Venus inh
CCCCn1c(SCC#N)nc2ccccc2c1=O	19%	-6%
Cc1ccc(OCC(=O)NCCNC(=O)c2cccnc2)cc1C	-20%	-4%
Cc1cc(C2N=C(N)Nc3nc4ccccc4n32)c(C)n1-c1ccccc1Cl (configuration not stated)	-3%	-7%
CCOC(=O)c1sc(NC(=O)c2ccc(S(=O)(=O)N3CCCCC3)cc2)nc1-c1ccccc1	-11%	-8%
CCC(=O)OCCNc1nc(-c2ccccc2)nc2ccccc12	i	-21%
O=C(NNC(=O)c1ccc(-n2cncn2)c([N+](=O)[O-])c1)c1ccccc1	i	-9%
O=C(c1cccnc1)N1c2ccccc2Sc2ccccc21	?	-9%
Cc1ccsc1/C=N/NC(=O)c1ccncc1	11%	11%
COC(=O)NNC(=O)c1ccccc1OC	-1%	-7%
CCCn1nnc2sc3c(c2c1=O)CCC(C)C3 (configuration not stated)	nt	-17%
CC(C)Cc1ccc(CN2CCCC(NC(=O)CCN3CCOCC3)C2)cc1 (configuration not stated)	-10%	-17%
CCOC(=O)C1CCCN(C(=O)C2CCN(S(=O)(=O)N3CCC4(CC3)OCCO4)CC2)C1 (configuration not stated)	-13%	-6%
O=NN1CCCCC1	-1%	-14%
COc1ccc(C(=O)Nc2ccc3nc(SCC(=O)N4CCCC4)sc3c2)cc1	-7%	-4%
O=C(CNCc1ccco1)Nc1ccccc1-n1cccc1	-15%	-10%
Cc1cc(C)n(-c2nc3ccccc3c3nc(C)nn23)n1	i	-13%
CC(C)(C)OC(=O)C[C@H]1C/C=C\C[C@H](CC(=O)N[C@H](CO)Cc2ccccc2)C(=O)N2CCC[C@@H]2COC1=O	-7%	-11%
O=C(Cc1cccc2ccccc12)N1CCCc2ccccc21	-22%	-10%
COC(=O)c1ccc(NC(=O)C(=O)N2CCCC2)cc1	-12%	-3%
Cc1ccc2c(c1)[C@H]1[C@H](CO2)[C@H](c2ccccc2)[C@]2(C)C(=O)Nc3ccccc3C(=O)N12	?	-27%
COc1ccc(C(=O)SC2=NCCS2)cc1	-3%	-20%
Cc1ccc(N2C(=O)N3[C@H](c4ccc(Cl)cc4)[C@@H]4C(=O)N(C5CCCCC5)C(=O)[C@@H]4[C@]3(Cc3ccccc3)C2=O)cc1	?	-14%
O=C(NCc1cccc(C(F)(F)F)c1)c1ccc2sc(C3=C[C@@H](O)[C@@H](O)[C@@H](CO)O3)nc2c1	-3%	-2%
CCCCCNC(=O)c1ccc2c(=O)n(CCOC)c(=O)[nH]c2c1	-14%	-12%
C(=N\N1CCOCC1)/c1cn(-c2ccccc2)nc1-c1ccccc1	?	-6%
CC(=O)c1cccc(NC(=O)NC2CC(=O)N(c3ccc4c(c3)OCCO4)C2)c1 (configuration not stated)	-15%	-4%
COc1cc(C(=O)NN=Cc2ccc(N(CCCl)CCCl)cc2)cc(OC)c1OC	-12%	-24%
Cc1ccc(NC(=O)N2CCC(NC(=O)c3cccc(C)c3)CC2)cc1	-11%	-3%
Cc1nn2c3cc(N4CCOCC4)ccc3nc2c2ccccc12	-12%	-8%
COc1c(Cl)ccc(Cl)c1C(=O)O	-5%	6%
Cc1cccc(NC(=O)c2sccc2-n2cccc2)c1C	-12%	-4%
CC1CCCN(CC(=O)Nc2ccc(S(=O)(=O)N3CCCCCC3)cc2)C1 (configuration not stated)	-12%	-29%
Cc1cccc(N2CCN(Cc3ccc4c(c3)OCO4)CC2)c1C	-13%	0%
COc1ccc(-c2onc3ccc(Cl)cc23)cc1	-9%	5%
C[C@@H]1[C@H](c2ccccc2)OCCS(=O)(=O)N1Cc1ccccc1F	-27%	-21%
CSc1ncccc1C(=O)Nc1ccc(S(=O)(=O)Nc2nccs2)cc1	-13%	-18%
